TAR Tat displ: HIV-1 TAR-Tat binding disruption; z-score (test concentration not listed); 0.6% of 100,000 active; HIV-1 TAR RNA, Tat peptide displacement FRET; active compounds read high;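 further: score is relative to mean and SD of negative controls; some compounds called inactive have numbers as strong as hits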
CDC25B CDK2 inh: human CDC25B-CDK2/CyclinA binding inhibition; P30305+P24941; HTRF CDC25B-CDK2/CyclinA binding, anti-His/anti-Flag; active compounds read high; z-score (no concentration beside the values); 0.72% of 94,000 active; AID 1259370;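 further: score is relative to mean and SD of negative controls; strong numbers were not always called active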
* = called active by the depositor; · = not tested or not shown; & = joins results of further samples.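 How the source made its calls: active means z-score from 3 up in half or more of its runs; inactive means the rest.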

SMILES	TAR Tat displ	CDC25B CDK2 inh
COC(=O)c1cc2sccc2n1CC(=O)Cc1ccc(OC)cc1OC	-1.4	-1.1
O=c1oc(-c2ccccc2NS(=O)(=O)c2ccc(F)cc2)nc2ccccc12	·	-2.3
CC(C)CC(=O)Nc1ccc2nc(SCc3cc(=O)n4ccsc4n3)sc2c1	0.32	·
CCc1nnc2c3ccccc3nc(Nc3ccccc3C)n12	-0.37	-2.1
NC(=O)c1ccccc1NCC(=O)c1ccc(Cl)cc1	·	-0.21
Cc1cc(-c2ccsc2)cc(C)n1	·	-1.5
CC(C)c1nn2c(=O)cc(COC(=O)c3ccco3)nc2s1	0.08	·
Cc1ccc(-c2nc(SCC(=O)OCc3ccccc3)[nH]c(=O)c2C#N)cc1	0.26	1.1
COc1ccccc1N1CCN([C@H]2CS(=O)(=O)C[C@@H]2S(=O)(=O)c2ccccc2)CC1	-0.67	-2.5
COc1ccc(NC(=O)Nc2c(C3=CCCC3)c(C)nn2C)cc1	2.4	·
Cc1cc2c3c([nH]c2cc1S(=O)(=O)NCC1CCCO1)CC(C)(C)CC3=O (configuration not stated)	0.43	·
CC1CCC(NC(=O)c2cc(-c3ccncc3)nc3ccccc23)CC1 (configuration not stated)	·	-2.1
CC(C)S(=O)(=O)c1csc(C(=O)NNC(=O)Nc2ccccc2)c1Cl	·	-1.7
CC1CN(C(=O)Nc2ccc(F)cc2)c2ccccc2O1 (configuration not stated)	1.2	·
Cn1c(-c2ccccc2)cnc1NCc1cc(Cl)ccc1O	1.5	-1.6
Cc1cc2c3c([nH]c2cc1S(=O)(=O)NCCC1=CCCCC1)CC(C)(C)CC3=O	-0.86	·
COc1ccc(OC)c(NC(=O)C2CCN(c3ncnc4c3nc3n4CCCCC3)CC2)c1	-0.07	·
O=C(CN1c2ccc(Br)cc2-c2ccccc2S1(=O)=O)N1CCOCC1	0.95	-2.1
Cc1[nH]c2ccccc2c1C1=CCN(S(=O)(=O)c2ccc(Br)cc2)CC1	0.6	-1
O=C(Cn1nc(C(F)(F)F)c2c1CCC2)NCc1cccs1	·	1.9
Cc1ccc2cc(CCNC(=O)CCC3CCCC3)c(=O)[nH]c2c1C	·	-2.5
O=C1NC(O)=NC1(c1ccccc1)c1ccccc1	·	-0.64
COc1nc2ccccc2cc1-c1noc(-c2ccncc2)n1	1.7	0.6
CCC(CC)C(=O)Nc1nnc2n1CCCS2	1.9	·
O=c1[nH]nc(-c2cccc(Br)c2)nc1Cc1ccco1	-0.26	·
Cc1noc(C)c1C(=O)Oc1ccc(-c2n[nH]nc2C#N)cc1	·	-1.1
COC(=O)c1ccc(CSc2nnc(-c3cccnc3)o2)cc1	0.24	0.18
COc1ccc(-n2ncc3c2ncn2nc(-c4ccccc4)nc32)cc1	1.4	0.31
Cc1ccc(Cn2c(CNS(=O)(=O)c3ccc4c(c3)CCCC4)nc3cccnc32)cc1	1.4	·
CCOC(=O)CNC(=O)C(CC(N)=O)NC(=O)OC(C)(C)C (configuration not stated)	·	-0.62
CC1=C(c2ccc(Cl)cc2)S(=O)(=O)N=C1N1CCOCC1	-0.34	-1.5
Cc1cccc(N2C(=O)c3c(C)nc4ccccc4c3C2=O)c1C	-0.8	-1.2
CC(=O)N1c2ccc(S(=O)(=O)N3CCCC3)cc2CC1C(=O)NCCN1CCOCC1 (configuration not stated)	2	·
Cc1c(C)c2ccc(OC3CCCCC3=O)cc2oc1=O (configuration not stated)	·	-0.8
COC(=O)c1sc(NC(=O)CSc2nnc3ccc4ccccc4n23)c(C(=O)OC)c1C	-0.61	-0.63
CC(C)CNC(=O)C(=O)NCC(c1ccco1)S(=O)(=O)c1ccc(Cl)cc1 (configuration not stated)	2.4	·
O=C(c1ccc(N2CCCC2=O)cc1)N1CCCC1	·	-0.26
NC(Cc1c[nH]c2ccccc12)C(=O)O (configuration not stated)	2.1	·
COC(=O)c1c(C)cc(OC(=O)c2c(C)cc(O)c(C=O)c2O)c(C)c1O	-0.65	·
Cc1cc(C)c(S(=O)(=O)Nc2ccc3c(c2)N(S(C)(=O)=O)CCC3)cc1C	0.53	·
Cc1ccc2oc(=O)n(CCCOc3ccc(Br)cc3)c2c1	1.4	-1.2
O=S(=O)(Nc1ccccn1)c1cccs1	0.02	-2.6
CC(=O)N1c2ccc(S(=O)(=O)NC(C)c3ccc4c(c3)OCCO4)cc2CC1C (configuration not stated)	-2.5	·
Cn1c(=O)n(C)c2cc(S(=O)(=O)N3CCN(c4cccc(Cl)c4)CC3)ccc21	-0.93	-0.4
CCCCCCCc1c(C)[nH]n(-c2nnc3c(n2)[nH]c2ccccc23)c1=O	·	-2.1
Cc1c2occ(-c3ccc(F)cc3)c2cc2c1oc(=O)c1ccccc12	0.62	-0.55
COc1ccc(-c2noc(NC3CCCC3)n2)cc1	0.83	·
CCCCCCCCCCC1=C(C)C(=O)C(OC)=C(OC)C1=O	3	·
CC1CCN(C(=O)CSc2ccc(-c3cccs3)nn2)CC1	1.7	·
CC(C)OCCCN1C(=O)c2[nH]nc(-c3ccccc3O)c2C1c1ccccc1 (configuration not stated)	0.89	1.4

New compounds follow.
SMILES	TAR Tat displ	CDC25B CDK2 inh
C=Cc1ccc(CN2C=NS(=O)(=O)c3ccccc32)cc1	-1.1	·
CCCCC1=NN(C(=O)c2ccncc2)C(O)(C(F)(F)F)C1 (configuration not stated)	·	-1.2
Cc1cc(C)n2ncc(C#N)c2n1	·	-1.7
Cc1cc(=O)oc2cc(NC(=O)CCC(=O)O)ccc12	·	-0.41
COC(=O)C1=C(C)NC2=C(C(=O)CC(c3ccc(OC)c(OC)c3)C2)C1c1ccc(F)cc1 (configuration not stated)	-0.9	-0.9
CCn1c(SCc2ccc(C)cc2)nnc1-c1nonc1NC(C)=O	0.57	-0.68
O=C(CCCc1nc(-c2cccs2)no1)Nc1ccccc1F	0.15	-0.3
CCOCCOC(=O)COc1ccc2c(=O)c(Oc3cc(C)ccc3C)coc2c1	-0.11	-1.6
COc1cc(S(=O)(=O)N2CCOCC2)c(OC)cc1Cl	1.7	-0.03
CC1(C)CC(=O)C2=C(C1)Nc1ccccc1NC2c1ccc(O)c(O)c1 (configuration not stated)	-3.4	0.14
O=c1oc2ccccc2n1CCc1nnc(-c2ccccc2)o1	1.5	-0.45
Cc1ccc(C2CC(=O)Nc3c2c(C)nn3-c2ccc3nnc(C)n3n2)cc1 (configuration not stated)	0.5	·
CCOc1ccc(/C(O)=C2\C(=O)C(=O)N(Cc3cccnc3)C2c2ccc(OC)c(OC)c2)c(C)c1 (configuration not stated)	1.4	0.1
Cc1cc(-c2noc(C(C)(C)C)n2)no1	·	-1.2
CCc1nc2nc(CSc3nnc(NC(=O)CCc4ccccc4)s3)cc(=O)n2[nH]1	1.1	·
CC1=C(C(=O)Nc2cc(C)ccn2)C(c2cccs2)C2=C(CC(C)(C)CC2=O)N1 (configuration not stated)	1.1	-1.9
Cc1ccc(CNC(=O)c2c(N3CCCC3=O)c3cc(F)ccc3n2C)o1	0.27	·
O=C1CCCC2=C1C(c1cccs1)c1c([nH]n(-c3ccccc3)c1=O)N2 (configuration not stated)	0.3	3
COc1ccc(-c2nc(C3CCCN(S(=O)(=O)c4ccccc4)C3)no2)cc1 (configuration not stated)	0.29	-0.75
CCn1cc(CCC(=O)NCCC2=CCCCC2)c2ccccc21	0.38	·

2 entries picked at random from the list so far, as already listed:
SMILES	TAR Tat displ	CDC25B CDK2 inh
Cc1ccc(C2CC(=O)Nc3c2c(C)nn3-c2ccc3nnc(C)n3n2)cc1 (configuration not stated)	0.5	·
CCc1nc2nc(CSc3nnc(NC(=O)CCc4ccccc4)s3)cc(=O)n2[nH]1	1.1	·

Remaining list, next part.
SMILES	TAR Tat displ	CDC25B CDK2 inh
COc1ccc(C(=O)Oc2ccc(Cl)c3cccnc23)cc1OC	-1.6	-2.2
Cc1ccc2c(C)c(C(=O)N(Cc3ccc(Cl)cc3)C3CCS(=O)(=O)C3)oc2c1 (configuration not stated)	0.64	-0.66
O=C1NC(c2cccc(O)c2)c2c(-c3ccccc3)n[nH]c21 (configuration not stated)	0.28	·
CCc1nnc(SCC(=O)Nc2ccc(C)c(C)c2)c2cc3oc(C)cc3n12	-0.97	·
Cc1ccc(S(=O)(=O)Nc2cc(C(C(=O)OC(C)C)C(=O)C(F)(F)F)c(O)c3ccccc23)cc1 (configuration not stated)	·	-0.97
CCCCCC(C)n1[nH]c(=O)cc1N (configuration not stated)	-0.85	-1.4
O=S(=O)(NCC(c1ccco1)N1CCN(c2ccccc2)CC1)c1ccccc1 (configuration not stated)	0.35	·
O=C(O)c1ccc(NS(=O)(=O)c2ccc3c4c(cccc24)C(=O)S3)cc1	0.49	-0.75
CC(C)CCNC(=O)CCCn1sc2ccccc2c1=O	2	-1.8
Fc1cccc(Cl)c1C1CC(c2ccc(Br)cc2)Nc2nnnn21 (configuration not stated)	2	·
COc1ccc(OC)c(NS(=O)(=O)c2cc3[nH]c4c(c3cc2C)C(=O)CC(C)(C)C4)c1	0.86	·
Cn1c(CCCO)nc2ccccc21	-0.95	0.19
COCCOC(=O)C1=C(C)NC2=C(C(=O)CCC2)C1c1cc2c(cc1Br)OCO2 (configuration not stated)	0.19	-1.1
Cc1ccc(-c2nc(NS(=O)(=O)c3cccc4nonc34)sc2C)cc1Cl	·	0.51
C=CCn1c(SCC(=O)N2CCc3ccccc32)nc2ccccc2c1=O	·	-0.28
CCN(CC)CCCN1C(=O)c2cc3oc(C)cc3n2CC1(C)C(=O)NC1CCCCC1 (configuration not stated)	2.8	·
O=C(Cn1ncc2ccc(Cl)cc21)NC1CCCc2ccccc21 (configuration not stated)	2.2	-1.3
CC1CCCN(S(=O)(=O)c2ccc3c(c2)NC(=O)CCS3)C1 (configuration not stated)	0.63	·
O=C(Nc1nnc(Sc2ccnc3cc(Cl)ccc23)s1)C1CC1	·	-1.8
O=C1Nn2c(nc3ccccc3c2=O)C2CCCCC12 (configuration not stated)	·	-1.5
Nc1nnc(Sc2ncccc2[N+](=O)[O-])s1	·	-0.32
COC(=O)c1cc(S(=O)(=O)Nc2ccc(F)cc2F)c[nH]1	0.95	·
CCCCOC(=O)c1c(N)n(-c2ccc(OCC)cc2)c2nc3ccccc3nc12	·	-3.7
CCCN1C(=O)C(O)(CC(=O)c2c(C)coc2C)c2ccccc21 (configuration not stated)	1.1	-1.2
CC(C)(C)C(=O)O/N=C(/c1cccs1)C(C)(C)C	·	0.3
Nc1nc(Cl)nc2c1ncn2[C@@H]1O[C@H](CO)[C@@H](O)[C@H]1O	-2.5	·
CCOc1ccc(NC(=O)CCN2C(=S)NC(C)(C)CC2C)cc1 (configuration not stated)	·	-0.45
COc1ccc(C(=O)CSc2nc3ccc(OC)cc3[nH]2)cc1	·	-0.58
Cc1cc(C)n2ncc(C(=O)NC3CCCC3)c2n1	0.41	·
O=C(CSc1nc2ccccc2s1)c1ccc2c(c1)Cc1ccccc1-2	·	-14

Complete entries, quoted from the list. Values in the order: TAR Tat displ, CDC25B CDK2 inh
Profile of O=C(CSc1nc2ccccc2s1)c1ccc2c(c1)Cc1ccccc1-2 : ·, -14
Profile of CCCCOC(=O)c1c(N)n(-c2ccc(OCC)cc2)c2nc3ccccc3nc12 : ·, -3.7
Profile of COC(=O)c1cc(S(=O)(=O)Nc2ccc(F)cc2F)c[nH]1 : 0.95, ·
Profile of COc1ccc(C(=O)CSc2nc3ccc(OC)cc3[nH]2)cc1 : ·, -0.58
Profile of Nc1nc(Cl)nc2c1ncn2[C@@H]1O[C@H](CO)[C@@H](O)[C@H]1O : -2.5, ·

Going on with the list.
SMILES	TAR Tat displ	CDC25B CDK2 inh
CNC(=O)c1nn(-c2ccccc2Cl)nc1CO	0.61	-1.1
CC1=C(c2ccc(C)c(C)c2)S(=O)(=O)N(Cc2ccc(C(=O)N3CCOCC3)cc2)C1=O	-0.19	-0.56
CCOC(=O)C1CCN(c2cc(C)c(C#N)c3nc4ccccc4n23)CC1	1.3	-1.2
CCCn1c2ccccc2c2cnn(CC(=O)O)c(=O)c21	2.4	-0.53
O=C(CS(=O)(=O)Nc1cccc(C(F)(F)F)c1)Nc1cccc(C(F)(F)F)c1	·	-2.9
Cc1ccc(-c2n[nH]c(=O)c3c2CCCC3)cc1S(=O)(=O)Nc1ccc(F)cc1F	1.2	0.28
CCCCC[C@H](O)CC(=O)CCc1ccc(O)c(OC)c1	2&2.7	·
O=C(CCCn1c(=S)[nH]c2ccc(Br)cc2c1=O)NC1CCCC1	·	-6.6
Cc1nn(C(C)C(=O)NCc2ccco2)c(=O)c2c1sc1ccccc12 (configuration not stated)	2.5	-2.5
Cc1ccc(N2C(=O)c3ccncc3C2=O)cc1	0.49	-0.45
Cn1c(=O)n(C)c2cc(C(O)COc3ccc(CNCc4cccs4)cc3)ccc21 (configuration not stated)	0.02	-0.55
Cc1ccc(S(=O)(=O)N2CCN(c3cc(N4CCOCC4)nc(C)n3)CC2)cc1	0.85	-1.6
